Rce1 inh: inhibitors of yeast Ras-converting enzyme | Q03530 | AID 2563 | calls only | yeast membranes, quenched prenylated peptide cleavage fluorescence | 0.27% of 290,000 active;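 active = fall in fluorescence gain of 50% or more versus controls, with final raw signal at or below 3038400; inconclusive = same 50% fall but final raw signal above 3038400; inactive = fall in fluorescence gain under 50%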;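 note: plate controls were neutral control wells for no effect and wells lacking membranes for full effect; tested at 10 µM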
Target sequence (Q03530 whole entry, looked up): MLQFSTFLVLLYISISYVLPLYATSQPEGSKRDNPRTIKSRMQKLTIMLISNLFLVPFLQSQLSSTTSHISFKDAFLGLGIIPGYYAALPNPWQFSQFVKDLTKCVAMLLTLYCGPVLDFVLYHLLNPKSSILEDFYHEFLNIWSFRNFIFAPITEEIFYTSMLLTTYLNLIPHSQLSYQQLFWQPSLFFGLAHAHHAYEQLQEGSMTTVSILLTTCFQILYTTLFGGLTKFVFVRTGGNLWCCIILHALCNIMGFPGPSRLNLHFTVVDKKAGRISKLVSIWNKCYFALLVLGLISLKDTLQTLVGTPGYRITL
PABP polyA inh: blocks human PABP binding to poly(A) RNA. P11940. fluorescence polarization. inhibition, % at 35 µM. 1% of 290,000 active. AID 2014;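 active = 50% or more with normal probe brightness, or confirmed in later tests; inconclusive = above 50% with abnormal brightness, or retests that disagree; inactive = below 50% or failed in later tests; about a fifth of its hits are not listed in these tables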;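 note: calls also rest on retests at 20 µM and on dose response follow-up; controls were probe without protein and protein plus probe with vehicle; some compounds called inactive have numbers as strong as hits; many hits fall short of the cut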
eIF4H inh: inhibitors of RNA binding by human eIF4H. Q15056. eIF4H fluorescence polarization binding assay. inhibition, % at 35 µM. 0.94% of 290,000 active. AID 2012;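 active = 50% or more with normal probe brightness, or confirmed in later tests; inconclusive = above 50% with abnormal brightness, or retests that disagree; inactive = below 50% or failed in later tests; about a fifth of its hits are not listed in these tables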;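 note: calls also rest on retests at 20 µM and on dose response follow-up; 0% = protein and probe with vehicle and 100% = probe without protein; strong numbers were not always called active; many hits fall short of the cut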
CSC inhib: blocks cancer stem cells | 1.1% of 300,000 active | cancer stem cell-like cells viability, luminescence | inhibition, % at 7.5 µM;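 active = mean at 75% or more and at least half the replicates too; inconclusive = mean and replicates disagree; tested in HMLE shEcad cells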;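 note: 0% = median of negative and 100% = median of positive control wells; the first replicate is given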
Env fusion inh: inhibitors of HIV Env-mediated cell fusion | HeLa-JRFL Env/CEM21 cell fusion, luciferase | inhibition, % at 12.3 µM | 1.1% of 360,000 active;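 active = mean replicate inhibition score of at least 50 and every replicate individually at or above 50; inconclusive = only one of the two criteria met; inactive = mean below 50 and not all replicates reaching 50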;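 note: 0% = plate neutral controls and 100% = maraviroc near 300 nM; one replicate is shown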
MT1-MMP act inh: blocks activation of human MT1-MMP. P50281. HT1080 RFP-PRO-GFP cells, GFP/RFP ratio fluorescence, overnight; percent of plate control window, DMSO zero. GFP/RFP ratio change, % at 20 µM. 0.061% of 360,000 active. AID 651647;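 active = GFP/RFP ratio change of at least 30% with cell ATP level not reduced by more than half and red fluorescence within 50% of control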; note: strong numbers were not always called active
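Assay system: RFP-PRO-GFP reporter HT1080 cells; read-out basis: GFP/RFP fluorescence ratio; benchmarks: DMSO wells and RFP-L50D-GFP cells; doses: 20 µM single dose, 1% DMSO; schedule: overnight cell settling, then overnight compound exposure, 37 °C, 5% CO2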
UUG fidelity: yeast start codon fidelity modulation | S. cerevisiae UUG-firefly luciferase reporter, luminescence/redox ratio | activity score, % at 18.7 µM | 0.13% of 350,000 active | AID 602363;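 active = replicate mean at a twofold rise or more, about +100% in these data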;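 note: firefly luciferase made from a UUG start codon reports start codon fidelity; reporter light over untreated wells divided by growth signal over untreated wells; some hits fall short of that in this replicate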
eIF4H inh retest: second read-out of eIF4H inh, no call of its own (marks repeat the call); inhibition, %; compound at 20 µM; confirmation average;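 mean of two retest wells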
PABP polyA inh retest: recorded beside PABP polyA inh, whose call it bears; inhibition, %; compound at 20 µM; confirmation repeats;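 mean of two retest wells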
MT1-MMP act inh RFP: recorded beside MT1-MMP act inh, whose call it bears; RFP signal change, %; measured here: RFP expression control read;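 0 = vehicle wells; hits needed this value within 50% of zero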
Active calls of the source: *; i = inactive; ? = inconclusive; . = no result given.

SMILES	Rce1 inh	PABP polyA inh	eIF4H inh	CSC inhib	Env fusion inh	MT1-MMP act inh	MT1-MMP act inh RFP	UUG fidelity	others
COc1ccc(Cc2[nH]n3c(=O)c(Cl)c(C)nc3c2-c2ccccc2)cc1	i	-2.1	3.6	9.7	15.1	2.7	0.3	.
O=C(NCCc1ccccc1)c1ccc(Br)o1	i	2.0	-7.4	-4.6	-71.4	-0.9	-1.7	4.6
O=C(O)/C=C/c1cccc(OCc2ccccc2)c1	i	-4.6	-7.8	-18.8	5.6	0.5	3.5	-17.2
COCCN(C(=O)COC(=O)CCSc1ccc(F)cc1)c1c(N)n(Cc2ccccc2)c(=O)[nH]c1=O	i	.	.	-7.8	22.4	0.0	2.7	-7.7
Cc1ccccc1N1CCN(C2CCCN(C(=O)c3ccnn3C)C2)CC1 (stereo not given)	i	-0.5	-3.3	3.6	7.0	0.6	1.1	16.8
O=C(/C=C/c1ccc(Cl)c([N+](=O)[O-])c1)c1ccc(O)cc1	i	3.3	1.1	80.8*	7.4	-4.8	-12.6	-17.7
Cc1cc2c(NCCc3ccccc3)ncnc2s1	i	-8.7	-5.4	17.3	-1.5	12.4	-28.0	-13.7
Cc1cc(C(=O)OCC(=O)N2CC(C)CC(C)C2)c(C)o1 (stereo not given)	i	-4.2	-2.6	-4.6	.	-2.0	0.2	14.8
COc1cccc(NC(=O)c2ccncc2)c1	i	3.7	-0.7	-8.1	.	-2.1	-4.8	-17.2
COc1cc(-c2cn(S(=O)(=O)c3cccc4nsnc34)nc2N)cc(OC)c1OC	i	2.6	0.5	-3.6	-45.8	7.9	-0.3	-11.9
O=C(CSc1cccc[n+]1[O-])Nc1cccc(S(=O)(=O)NC2=NCCCCC2)c1	i	-3.5	-1.2	-5.7	-1.0	0.1	3.0	.
CC(=O)N1c2ccc(S(=O)(=O)N3CCCC(C(=O)Nc4ccc(C)cc4C)C3)cc2CC1C (stereo not given)	i	4.6	-0.1	-11.0	15.1	-2.0	-11.6	-8.9
Nc1ncnc2c1CN(Cc1ccccc1)CC2	.	.	.	.	-2.3	-2.7	2.9	-5.9
Cc1c(N2C(=O)/C(=C/c3ccccc3)SC2=S)c(=O)n(-c2ccccc2)n1C	i	-3.0	-4.3	8.4	11.3	3.5	-9.2	1.0
COc1ccccc1CN1C(=O)c2ccncc2C1=O	i	-6.9	4.4	.	.	1.6	1.9	10.9
Cc1cccc(NC(=O)CN2C(=O)CNC2=O)c1	i	7.4	-3.0	-0.5	.	3.6	9.8	-17.5
CCOC(=O)Cc1csc(NC(=O)CN(C)S(=O)(=O)c2ccc3c(c2)CCC(=O)N3)n1	.	8.8	4.8	2.3	0.8	1.2	-4.6	-3.9
COc1cccc(OCc2cc(C(=O)N(C)Cc3nc4ccccc4[nH]3)no2)c1	i	-6.1	-15.5	2.5	-54.4	-31.1	-35.7	-15.2
CC(C)(C)NC(=O)CSc1nc(N)c(-c2ccccc2)c(=O)[nH]1	i	-0.9	-0.2	-13.3	-4.6	-0.1	-0.5	.
O=C(Nc1ccc(F)cc1)c1cc(S(=O)(=O)N2CCCCC2)cs1	i	-10.8	-4.3	-3.2	35.6	-0.3	-15.4	-0.1
CC(C)CC(=O)Nc1ccc(-c2cn3cccnc3n2)cc1	?	1.0	-0.8	-17.9	-8.3	1.7	-0.2	.
O=C(CN1C(=O)c2ccccc2C1=O)NCc1ccccn1	.	4.0	-4.8	-6.6	62.3	-2.6	1.0	-16.3
CC1(C(=O)NS(=O)(=O)c2ccc(Cl)cc2)CCN1C(=O)C1(c2ccc(Cl)cc2)CCC1 (stereo not given)	.	.	.	.	0.8	-0.8	-4.6	8.6
Cc1cccc(N2CCN(C(=O)c3ccnn3C)CC2)c1C	i	5.5	1.5	-10.3	13.8	1.5	1.2	-9.8
O=C(O)CC(NC(=O)C(F)(F)F)c1ccc2c(c1)OCO2 (stereo not given)	i	0.7	2.1	-12.3	10.6	2.1	-0.4	-1.7
Additional entries:
SMILES	Rce1 inh	PABP polyA inh	eIF4H inh	CSC inhib	Env fusion inh	MT1-MMP act inh	MT1-MMP act inh RFP	UUG fidelity	others
COc1ccc(NC2CCCN(C(=O)c3cccc(N(C)C)c3)C2)cc1 (stereo not given)	i	3.1	-9.7	.	-2.9	3.2	2.8	-10.8
Cc1ccc(N=Cc2cc(C)n(C3CCCC3)c2C)cc1	i	3.2	0.1	-11.6	-95.5	-3.3	-5.6	-13.4
CC(C(=O)Nc1ncc([N+](=O)[O-])s1)N1C(=O)c2ccccc2S1(=O)=O (stereo not given)	i	.	.	2.1	-27.5	3.2	7.9	-15.2
NS(=O)(=O)c1ccc(N/N=C/c2ccccc2Br)cc1	i	0.5	2.2	6.7	-15.7	-2.0	1.1	.
CC(=O)c1ccc(NC(=O)C(Cc2ccccc2)n2cccc2)cc1 (stereo not given)	i	-5.2	-5.2	-2.9	-6.2	-4.3	-1.0	9.8
CCc1ccc(NC(=O)COc2cccc(-n3cnnn3)c2)cc1	i	-7.3	5.6	.	-0.7	1.9	-0.6	58.4
CCC(C)[C@H](NC(=O)[C@H](Cc1ccccc1)n1c(=O)[nH]c2ccccc2c1=O)C(=O)NCC1CCC(C(=O)O)CC1 (stereo not given in full)	i	1.7	-11.9	8.6	.	0.5	4.3	-5.1
Cc1ccc(S(=O)(=O)NCc2n[nH]c(=S)n2C)cc1	.	13.0	0.7	-7.2	-109.9	0.1	1.0	-23.3
COc1cccc2cc(C(=O)N(C)C3CCN(C)CC3)c(=O)oc12	i	7.2	1.6	-0.7	.	1.9	0.2	-23.1
O=C(CSCC(=O)N1CCN(c2ccccc2)CC1)Nc1nc(-c2ccc(Cl)s2)cs1	i	10.5	-5.0	22.0	.	4.2	-7.5	-4.7
COc1ccc(/C=N/n2c(SC)nnc(C(C)(C)C)c2=O)cc1	i	-5.3	-2.5	10.2	.	-0.9	-1.3	-27.0
O=C(CSc1nnc(SCc2ccccc2Cl)s1)N/N=C/c1c[nH]c2ccccc12	i	5.1	6.9	1.7	16.9	-2.4	-13.9	4.8
O=S(=O)(Nc1cccc(-c2nnco2)c1)c1ccc(F)cc1F	i	1.9	-4.4	-3.9	-2.7	-0.1	3.0	-4.3
COCCCNC(=O)/C(C#N)=c1\s/c(=C\c2ccccc2OC(F)F)c(=O)n1CCCOC	i	9.5	54.7*	-5.6	-0.9	-4.2	-1.6	-9.4	eIF4H inh retest=51.9*;PABP polyA inh retest=34.3
O=C(Cn1nnc(-c2ccc(Cl)cc2)n1)NC1CCN(Cc2ccccc2)CC1	i	-2.7	0.5	23.3	-39.9	0.0	-3.1	-19.6
COCCOC(=O)C1=C(N)OC2=C(C(=O)CCC2)C1c1cccnc1 (stereo not given)	i	3.5	-3.3	8.4	-49.2	5.5	4.6	-23.6
CCOC(=O)c1cnc2c(C)cccc2c1Nc1cccc(C(=O)O)c1	i	4.4	5.3	-9.0	35.7	1.1	2.9	-3.7
Cc1ccc(CN2CCSc3ccc(C(=O)NCCCN4CCOCC4)cc32)cc1	i	-7.0	-12.0	23.5	13.1	1.8	2.0	-5.2
COC(=O)C1NN=C(C(=O)c2ccc(Br)cc2)C1c1cccc(Br)c1 (stereo not given)	i	-3.0	5.9	13.0	9.6	-0.3	-11.5	.
OCCCc1nc2ccccc2[nH]1	i	-1.0	14.8	-14.4	-92.8	-1.0	6.1	-14.6
CN(C)CCCN(C(=O)c1ccc(S(=O)(=O)N2CCCCCC2)cc1)c1nc2c(F)cccc2s1	i	8.2	0.4	-2.6	-6.7	-2.7	-2.1	3.1
CCc1ccc2nc(N(CCN(C)C)C(=O)c3ccc4ccccc4c3)sc2c1	i	1.9	-6.0	-3.3	.	7.5	15.4	-10.5
Cc1cc(Cl)ccc1OC(C)C(=O)NN=C1CCCCCC1 (stereo not given)	i	4.9	-1.5	.	-2.8	5.6	1.2	-9.7
COCCN1C(=O)c2ccccc2C(C(=O)N2CCN(c3ccccn3)CC2)C1c1ccc(F)cc1 (stereo not given)	i	-0.7	5.9	.	-4.5	-0.5	-3.0	-5.2
CCn1c(SCC(=O)c2ccccc2)nc2c(c1=O)SC(C)C2 (stereo not given)	i	-6.1	-9.1	-10.9	.	.	.	-15.0

An excerpt taken from the entries so far:
SMILES	Rce1 inh	PABP polyA inh	eIF4H inh	CSC inhib	Env fusion inh	MT1-MMP act inh	MT1-MMP act inh RFP	UUG fidelity	others
COc1ccc(NC2CCCN(C(=O)c3cccc(N(C)C)c3)C2)cc1 (stereo not given)	i	3.1	-9.7	.	-2.9	3.2	2.8	-10.8
Cc1ccc(N=Cc2cc(C)n(C3CCCC3)c2C)cc1	i	3.2	0.1	-11.6	-95.5	-3.3	-5.6	-13.4
CC(C(=O)Nc1ncc([N+](=O)[O-])s1)N1C(=O)c2ccccc2S1(=O)=O (stereo not given)	i	.	.	2.1	-27.5	3.2	7.9	-15.2
NS(=O)(=O)c1ccc(N/N=C/c2ccccc2Br)cc1	i	0.5	2.2	6.7	-15.7	-2.0	1.1	.
CC(=O)c1ccc(NC(=O)C(Cc2ccccc2)n2cccc2)cc1 (stereo not given)	i	-5.2	-5.2	-2.9	-6.2	-4.3	-1.0	9.8
CCc1ccc(NC(=O)COc2cccc(-n3cnnn3)c2)cc1	i	-7.3	5.6	.	-0.7	1.9	-0.6	58.4
CCC(C)[C@H](NC(=O)[C@H](Cc1ccccc1)n1c(=O)[nH]c2ccccc2c1=O)C(=O)NCC1CCC(C(=O)O)CC1 (stereo not given in full)	i	1.7	-11.9	8.6	.	0.5	4.3	-5.1
Cc1ccc(S(=O)(=O)NCc2n[nH]c(=S)n2C)cc1	.	13.0	0.7	-7.2	-109.9	0.1	1.0	-23.3
COc1cccc2cc(C(=O)N(C)C3CCN(C)CC3)c(=O)oc12	i	7.2	1.6	-0.7	.	1.9	0.2	-23.1
O=C(CSCC(=O)N1CCN(c2ccccc2)CC1)Nc1nc(-c2ccc(Cl)s2)cs1	i	10.5	-5.0	22.0	.	4.2	-7.5	-4.7
COc1ccc(/C=N/n2c(SC)nnc(C(C)(C)C)c2=O)cc1	i	-5.3	-2.5	10.2	.	-0.9	-1.3	-27.0

The results go on:
SMILES	Rce1 inh	PABP polyA inh	eIF4H inh	CSC inhib	Env fusion inh	MT1-MMP act inh	MT1-MMP act inh RFP	UUG fidelity	others
Cc1ccc(NC(=O)CSCC(=O)O)c(C)c1	.	4.5	-4.6	-13.4	-67.2	1.9	3.5	12.7
CN(Cc1ccccc1)C(=O)CCn1c(=O)c2cccn2c2cccnc21	i	.	.	-16.6	2.2	-0.6	5.8	-18.2
CC1CCN(c2ccccc2NC(=O)c2ccc(C#N)cc2F)CC1	i	2.7	4.0	-1.9	-22.1	-3.8	-6.6	.
O=C(NN=C1CCCCCCC1)C(=O)NC1CCCCC1	i	7.2	-6.3	-11.6	-17.9	2.0	4.8	-2.9
Cc1nc2ccccn2c1C(=O)N/N=C/c1cc(C)n(-c2ccc(Cl)cc2)c1C	i	-1.9	0.8	-1.6	-12.6	0.6	-1.8	-17.1
O=C1CCCN1CCC1CCN(C(=S)Nc2ccc(F)cc2)CC1	i	1.0	-3.4	-6.2	4.7	-0.4	1.4	-9.2
CCOc1ccc(N2CC(C(=O)Nc3cccc(S(=O)(=O)N4CCCC4)c3)CC2=O)cc1 (stereo not given)	i	.	.	.	9.2	3.6	-3.1	.

Bioassay records as filed in PubChem BioAssay.
